VDR inh: blocks the human vitamin D receptor | P11473 | VDR-SRC2-3 peptide fluorescence polarization, 2 h | Potency, µM, inactives show max response, negative = inhibition, hits mostly inhibitors | 0.93% of 400,000 active; active = well fitted inhibition curve with a large enough effect; inconclusive = small, poorly fitted or top-dose-only effect, or another doubt; inactive = no such curve, though single readings can be large or run the other way; also: series mostly up to about 120 µM
Target sequence (P11473 whole entry, looked up): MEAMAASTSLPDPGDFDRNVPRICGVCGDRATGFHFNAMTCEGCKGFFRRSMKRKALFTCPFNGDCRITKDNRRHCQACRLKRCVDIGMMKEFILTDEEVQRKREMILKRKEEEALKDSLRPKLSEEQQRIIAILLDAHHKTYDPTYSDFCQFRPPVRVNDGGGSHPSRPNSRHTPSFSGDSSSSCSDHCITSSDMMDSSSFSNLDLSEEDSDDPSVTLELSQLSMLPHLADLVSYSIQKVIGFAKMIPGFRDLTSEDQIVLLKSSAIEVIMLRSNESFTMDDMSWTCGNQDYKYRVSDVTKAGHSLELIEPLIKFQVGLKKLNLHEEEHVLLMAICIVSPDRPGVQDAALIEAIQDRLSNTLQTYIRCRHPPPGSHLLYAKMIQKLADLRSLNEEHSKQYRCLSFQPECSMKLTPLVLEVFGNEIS
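VDR–SRC2-3 interaction, FP format. Cmpds 23 nl via pintool, brief spin, 2 h ambient incubation.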
Starred values were filed as active, the others as inactive; & = joins results of further samples. % is scaled to controls: 0 for no effect and ±100 for the full control effect; potency is read from the fitted curve at half-maximal effect. The list is partial; count on the stated rates, not on these rows.

`CCOc1ccc(CCNC(=O)COC(=O)/C=C/c2ccc(C)o2)cc1OCC` gave VDR inh 0%.
Screening COc1ccc(CNc2ccc3cc(S(=O)(=O)N4CCCCC4)ccc3n2)cc1 returned VDR inh 7%.
CCOCCCNC(=O)c1ccc(CS(=O)(=O)c2cccc(C(F)(F)F)c2)o1 was read as VDR inh -11%.
`COc1ccccc1OCC(=O)Nc1nc(-c2ccc(S(=O)(=O)N3CCOCC3)cc2)cs1` gave VDR inh 8%.
For Cc1ccc(S(=O)(=O)CCC(=O)OCC(=O)NC(C)c2ccccc2)cc1 (configuration not stated) the results were VDR inh 4%.
`COc1ccc(C2C(C(=O)c3ccc(C)o3)=C(O)C(=O)N2Cc2cccnc2)cc1OC` (configuration not stated) gave VDR inh -14%.
`N/C(=N\OC(=O)Cc1cccs1)c1ccc(Br)cc1` gave VDR inh -11%.
COc1ccc(S(=O)(=O)Nc2c(NC3CCCCC3)c3ccccc3oc2=O)cc1OC was read as VDR inh -1%.
Screening COc1ccc(NS(=O)(=O)c2cccc(C(=O)NCC3CCCO3)c2)cc1 (configuration not stated) returned VDR inh -9%.
For O=C(CSc1nnc(-c2ccncc2)o1)N1CCCCCC1 the results were VDR inh 10%.
`CCOc1ccc(NC(=O)CCCc2cc(-c3ccc(OCC)cc3)on2)cc1` gave VDR inh -2%.
CCCn1c(N)c(Sc2ccc(Cl)cc2)c(=O)n(CCC)c1=O was read as VDR inh 11%.
O=C(NCc1cccnc1)C1CC(c2ccccc2Cl)=NO1 (configuration not stated) was read as VDR inh -7%.
Cc1ccc(-c2nc(CN(C)Cc3cccc4cnccc34)c(C)o2)s1 was read as VDR inh 6%.
Screening O=C1c2ccccc2NC(c2cccs2)N1O (configuration not stated) returned VDR inh 11%.
Cc1cccc(C2N3CC4(C(C)C)CN2CC(C(C)C)(C3)C4=O)c1 (configuration not stated) was read as VDR inh 10%.
Screening N#Cc1c(-c2ccncc2)cc(-c2ccc(F)cc2)nc1N returned VDR inh 4%.
`Cc1cc(Br)ccc1NCc1ccccn1` gave VDR inh 1%.
For Cc1cc(C)c2c(=O)c(C#N)coc2c1 the results were VDR inh -1%.
For CCC1=NN(C(=O)C(=O)Nc2ccc(Br)cc2)C(O)(C(F)(F)F)C1 (configuration not stated) the results were VDR inh -1%.
Screening O=C(NCc1cccnc1)C(=O)NCC1CCCO1 (configuration not stated) returned VDR inh -2%.
CCCC(=O)Nc1nnc2n1CCS2 was read as VDR inh -3%.
For COCCOC(=O)c1c(C)n(C)c2ccc(OC(=O)C3CC3)cc12 the results were VDR inh -15%.
Screening Cc1noc(-c2ccc(N3CCC(C)CC3)c([N+](=O)[O-])c2)n1 returned VDR inh -3%.
For O=C(O)C1CCN(S(=O)(=O)c2cccc3nsnc23)CC1 the results were VDR inh 2%.
`COc1ccc(NC(=O)c2cc(Br)ccc2Cl)c(OC)c1` gave VDR inh -9%.
For O=C(CCN1C(=O)C2C3CCC(C3)C2C1=O)OCC(=O)c1ccc(Br)cc1 (configuration not stated) the results were VDR inh 7%.
For CC1=C(C(=O)O)N2C(=O)[C@@H](NC(=O)C(N)C3=CCC=CC3)[C@H]2SC1 (some centres not stated) the results were VDR inh inconclusive.
`CCCCn1c(SCC(=O)NCc2ccco2)nc2ccc(N3CCOCC3)cc2c1=O` gave VDR inh -7%.
For COc1ccc(/C=C/C(=O)c2ccc3c4c(cccc24)CC3)cc1 the results were VDR inh -7%.
Cc1cccc(-n2c(O)cnc2Nc2nc(C)cc(C)n2)c1 was read as VDR inh 9%.
`O=CN1CCN(C(C(=O)NC2CCCCC2)c2cc3c(cc2[N+](=O)[O-])OCO3)CC1` (configuration not stated) gave VDR inh 0%.
`COc1cccc(C(=O)NCC2CCCN2S(=O)(=O)c2cccs2)c1` (configuration not stated) gave VDR inh -21%.
Cc1ccccc1N1C(S)=C(C#N)C(=O)NC1c1cccs1 (configuration not stated) was read as VDR inh 22µM*.
`O=C(Nc1ccc2ccccc2c1)C(c1ccccc1)C1CCCC1` (configuration not stated) gave VDR inh 7%.
For CCCc1c(OCCCOc2ccc(OCC(=O)O)cc2)ccc(C(C)=O)c1O the results were VDR inh 50µM*.
For O=c1c2c(nc3n1CCS3)c1cc(F)ccc1n2Cc1cc(=O)n2cc(Cl)ccc2n1 the results were VDR inh -3%.
For O=C(c1ccc(Br)o1)N1CCN(CCOc2ccccc2)CC1 the results were VDR inh 8%.
Screening Cc1cc(C)c(NC(=O)c2c(C)nn(-c3ccc(F)cc3)c2-n2cccc2)c(C)c1 returned VDR inh 0%.
CCCCOc1ccc(C(C)NC(=O)CCS(=O)(=O)Cc2ccccc2Cl)cc1 (configuration not stated) was read as VDR inh 2%.

Ordered by heavy-atom count (smallest number first): four of the compounds above.
`COc1ccc(NC(=O)c2cc(Br)ccc2Cl)c(OC)c1` gave VDR inh -9%.
For COCCOC(=O)c1c(C)n(C)c2ccc(OC(=O)C3CC3)cc12 the results were VDR inh -15%.
Screening Cc1cc(C)c(NC(=O)c2c(C)nn(-c3ccc(F)cc3)c2-n2cccc2)c(C)c1 returned VDR inh 0%.
`CCCCn1c(SCC(=O)NCc2ccco2)nc2ccc(N3CCOCC3)cc2c1=O` gave VDR inh -7%.

Continued:
Screening Cn1c(=O)c(-c2ccc(F)c(F)c2)nc2cncnc21 returned VDR inh -11%.
For CC(=O)C1=C(C)N(Cc2ccccc2)C(=O)N[C@H]1c1cccc(F)c1 the results were VDR inh 9%.
For Cn1c(NCC(O)c2ccccc2)nc2c1c(=O)n(Cc1ccc(Cl)c(Cl)c1)c(=O)n2C (configuration not stated) the results were VDR inh -2%.
Screening Cc1ccccc1OCC(=O)NC(=S)Nc1ccc(S(=O)(=O)NC2CCCCC2)cc1 returned VDR inh 0%.
Screening O=C(CSc1nc2cc(Cl)ccc2s1)Nc1cccc(S(=O)(=O)N2CCOCC2)c1 returned VDR inh -21%.
`Cc1noc(NS(=O)(=O)c2ccc(NC(=O)NC(C)(C(F)(F)F)C(F)(F)F)cc2)c1C` gave VDR inh 12%.
COc1ccc(NC(=S)N(CCCN2CCC(C)CC2)Cc2cccs2)cc1Cl was read as VDR inh -25%.
Cc1ccc(Cn2nnc3c(=O)[nH]c(C4CCN(S(=O)(=O)/C=C/c5ccccc5)CC4)nc32)cc1 was read as VDR inh 8%.
Cc1cc(C)n(-c2nc(-c3ccc(Cl)c(Cl)c3)cs2)n1 was read as VDR inh -16%.
For CCOc1ccc(NC(=O)CN2CCN(CC(=O)c3ccc(OCC)cc3)CC2)cc1 the results were VDR inh 9%.
For CCCOc1ccc(C(=O)Nc2ccc(NC(=O)c3ccccc3)c(Br)c2)cc1 the results were VDR inh -7%.
`CCn1c(CSc2nc(C)cc(C)n2)nnc1SCC(=O)Nc1nc(-c2ccccc2)cs1` gave VDR inh -14%.
For Cc1ccc(C(=O)C(C)OC(=O)Cn2cnc3c2c(=O)n(C)c(=O)n3C)cc1 (configuration not stated) the results were VDR inh -3%.
Screening CCC(C)NC(=O)Cn1c(=O)n(-c2ccc(OC)c(OC)c2)c(=O)c2ccccc21 (configuration not stated) returned VDR inh 28%.
Screening COc1ccc(C(=O)Nc2ccccc2C(=O)OCc2cc(=O)n3c4c(sc3n2)CCCC4)cc1 returned VDR inh -2%.
`Oc1ccc(N=Nc2ccccc2-c2nn[nH]n2)c(O)c1` gave VDR inh -26%.
Cc1ccc(-n2c(SCCN)nnc2-c2cccc(C)c2)cc1 was read as VDR inh -7%.
`CCOc1ccccc1CN1C(=O)c2ccccc2C1C(=O)NC(C)CC` (configuration not stated) gave VDR inh 13%.
O=C(Cn1c(=O)n(Cc2nc(-c3ccccc3)no2)c(=O)c2cc3c(cc21)OCO3)Nc1ccc(Cl)cc1 was read as VDR inh 13%.
`Cc1cc(C)nc(NC2=NCC(=O)N2c2ccccc2Br)n1` gave VDR inh 9%.

Structural class, the entries above containing two or more sulfur atoms
`COc1ccccc1OCC(=O)Nc1nc(-c2ccc(S(=O)(=O)N3CCOCC3)cc2)cs1` gave VDR inh 8%.
For O=C(O)C1CCN(S(=O)(=O)c2cccc3nsnc23)CC1 the results were VDR inh 2%.
`COc1cccc(C(=O)NCC2CCCN2S(=O)(=O)c2cccs2)c1` (configuration not stated) gave VDR inh -21%.
Cc1ccccc1N1C(S)=C(C#N)C(=O)NC1c1cccs1 (configuration not stated) was read as VDR inh 22µM*.
Screening Cc1ccccc1OCC(=O)NC(=S)Nc1ccc(S(=O)(=O)NC2CCCCC2)cc1 returned VDR inh 0%.
Screening O=C(CSc1nc2cc(Cl)ccc2s1)Nc1cccc(S(=O)(=O)N2CCOCC2)c1 returned VDR inh -21%.
COc1ccc(NC(=S)N(CCCN2CCC(C)CC2)Cc2cccs2)cc1Cl was read as VDR inh -25%.
`CCn1c(CSc2nc(C)cc(C)n2)nnc1SCC(=O)Nc1nc(-c2ccccc2)cs1` gave VDR inh -14%.

Continued:
CC(C)(C)CC(=O)Nc1nnc(SCC(=O)NCc2cccs2)s1 was read as VDR inh -20%.
Cc1ccc(NCSc2ccc(Cl)cc2)cc1 was read as VDR inh -7%.
`CCN1CCN(c2ccc(S(=O)(=O)N3CCCCC3)cc2NC(=O)c2cc3ccccc3o2)CC1` gave VDR inh -13%.
Screening O=C(O)c1ccccc1-c1ccccc1C(=O)Nc1nc2ccccc2s1 returned VDR inh 0%.
CCCc1cc(=O)[nH]c(SCC(=O)N(C)CC(=O)Nc2ccc(C)cc2)n1 was read as VDR inh -5%.
Screening CNS(=O)(=O)c1cc(NC(=O)c2cncn2-c2ccccc2)ccc1C returned VDR inh 0%.
For Cc1cnc(C(=O)OCC(=O)Nc2cc(Cl)ccc2C#N)cn1 the results were VDR inh -11%.
For Cc1ccc(CNC(=O)C2CCN(S(=O)(=O)c3c(C)noc3/C=C/c3ccco3)CC2)cc1 the results were VDR inh -12%.
`c1cc2nc(C34CC5CC(CC(C5)C3)C4)[nH]c2cn1` gave VDR inh 12%.
COc1cccc(C2C(C#N)=C(N)Oc3cc(C)n(Cc4ccco4)c(=O)c32)c1 (configuration not stated) was read as VDR inh -16%.
For FC(F)Oc1ccc(-c2csc(NNC3=NCCCCC3)n2)cc1 the results were VDR inh inconclusive.
For CCN(CC)S(=O)(=O)c1ccc(NC(=O)c2cc3ccc4cccnc4c3[nH]2)cc1 the results were VDR inh 1%.
Screening Cc1ccc(C(=O)O)cc1NC1(c2ccccc2)C(=O)c2ccccc2C1=O returned VDR inh 15%.
COc1cc(OC)cc(C(=O)N2CC(=O)Nc3ccccc32)c1 was read as VDR inh -7%.
For N/C(COc1cccc(Cl)c1)=N\O the results were VDR inh -10%.
Screening Fc1ccc(CSc2nnc(-c3ccco3)o2)cc1 returned VDR inh -9%.
`CCC(C(=O)Nc1ccc(C(=O)O)cc1NC(=O)C(CC)c1ccccc1)c1ccccc1` (configuration not stated) gave VDR inh -22%.
O=C(CNC(=O)Cc1ccccc1)NCC(=O)OCC(=O)c1cccc2ccccc12 was read as VDR inh -15%&1%.
Screening CCOc1cccc(-c2c(C(=O)N/N=C/c3c(F)cccc3Cl)nnn2-c2nonc2N)c1 returned VDR inh -18%.
`Brc1ccc(-c2noc(CCc3ccccc3)n2)o1` gave VDR inh -27%.
`CCOC(=O)c1ccc(-c2ccc(C(=O)Nc3cccnc3)o2)cc1` gave VDR inh -14%.
CC1(C)O[C@H]2OC([C@H](O)CON3C(=O)c4ccccc4C3=O)[C@H](O)[C@H]2O1 (some centres not stated) was read as VDR inh 3%.
For O=C1C(Cl)=C(NCCCO)C(=O)c2ccccc21 the results were VDR inh -10%.
Screening CCOC(=O)C1=C(C)NC(=S)NC1c1ccco1 (configuration not stated) returned VDR inh inconclusive.
CCOc1ccc(CCNS(=O)(=O)c2ccc3c(c2)N(C(C)=O)CCO3)cc1OCC was read as VDR inh -9%.
For Cc1ccc(-c2nc(CS(=O)(=O)CC(=O)NCc3cccc(F)c3)c(C)o2)cc1 the results were VDR inh 17%.
NS(=O)(=O)c1ccc(NC(=S)Nc2ccc(C(=O)N3CCCCC3)cc2)cc1 was read as VDR inh 0%.
For COc1ccc(OC)c(N2C(=O)c3cccnc3C2=O)c1 the results were VDR inh 13%.
CC(=O)Oc1ccc(/C=C(\NC(=O)c2cccc(Br)c2)C(=O)Nc2ccc(C(=O)O)cc2)cc1 was read as VDR inh -17%.
`O=C(CSc1ccccc1)Nc1nccs1` gave VDR inh inconclusive.
`COc1ccc(-c2cc(C(=O)NCCCN3CCOCC3)on2)cc1OC` gave VDR inh -10%.
COCCNC(=O)c1ccc2c(c1)NC(=O)CS2 was read as VDR inh 12%.
`Cc1onc(-c2ccccc2)c1C(=O)Nc1ccccc1NC(=O)c1c(-c2ccccc2)noc1C` gave VDR inh -8%.
Cc1oc(-c2ccccc2F)nc1CS(=O)(=O)CC(=O)NC1CCCC1 was read as VDR inh 4%.
`COc1cccc2[nH]c3c(N4CCCCC4)ncnc3c12` gave VDR inh -3%.
For O=C(Cn1ccc2ccccc2c1=O)NCCC(=O)Nc1ccc2c(c1)OCCO2 the results were VDR inh -2%.
Screening Cc1csc(SCC(=O)Nc2nc(-c3ccccc3)cs2)n1 returned VDR inh 6%.
Cc1nnc(SCC(=O)NC2CCCCC2)n(N)c1=O was read as VDR inh 27%.
`Cc1ccc2cn[nH]c2c1NC(N)=S` gave VDR inh -7%.
For O=C(COC(=O)c1ccc(Cl)nc1)NC(=O)c1ccccc1 the results were VDR inh -1%.
CC1(C(=O)O)CCC(C(=O)NNC(=O)c2ccccc2O)C1(C)C (configuration not stated) was read as VDR inh 7%.
`O=C(Cc1ccccc1)NC1CCN(S(=O)(=O)c2cccc(F)c2)CC1` gave VDR inh 5%.
For CCC(N)(C(=O)O)c1ccc(C(=O)O)cc1 (configuration not stated) the results were VDR inh -3%.
`COc1ccc(N2C(=O)c3ccccc3C2O)cc1` (configuration not stated) gave VDR inh 1%.
Screening CC(C)c1cnc2c(c1SCC(=O)Nc1ccc(C(N)=O)cc1)c(=O)n(C)c(=O)n2C returned VDR inh 6%.
For COCC(=O)N1CCC(Oc2ccc(C(=O)N(C)C(C)c3ccon3)cc2)CC1 (configuration not stated) the results were VDR inh 15%.
Cc1nnc(NC(=O)C2c3ccccc3Oc3ccccc32)s1 was read as VDR inh inconclusive.

High-throughput results deposited in PubChem BioAssay by National Center for Advancing Translational Sciences (NCATS).
